# GIV Gai3 FP = blocks GIV peptide binding to rat Galpha-i3 | hit rate 0.42% among 210,000 | Galpha-i3/FITC-GIV peptide fluorescence polarization, 90 min; hits give low values; scaled: aluminum fluoride 0%, vehicle 100% | P08753 | percent of control (FP), % (concentration not given with the values);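 active means replicate mean at 85% of control or lower, very high polarization wells dropped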;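 further: wells of about 15 µL received 100 nL stock; the first replicate is given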
# Target sequence (P08753 whole entry, looked up): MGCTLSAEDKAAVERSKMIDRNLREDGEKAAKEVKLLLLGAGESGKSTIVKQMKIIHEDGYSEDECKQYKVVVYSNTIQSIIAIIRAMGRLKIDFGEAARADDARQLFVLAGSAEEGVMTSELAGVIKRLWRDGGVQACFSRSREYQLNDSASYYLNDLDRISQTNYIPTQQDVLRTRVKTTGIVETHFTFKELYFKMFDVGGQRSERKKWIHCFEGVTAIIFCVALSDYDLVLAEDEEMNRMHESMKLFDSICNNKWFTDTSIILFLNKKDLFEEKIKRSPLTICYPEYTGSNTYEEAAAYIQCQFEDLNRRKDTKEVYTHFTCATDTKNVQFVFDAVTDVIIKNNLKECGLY
# * marks the source's active call; other numbers are inactive results. This is a subset; the hit share may differ from the screen's.
molecule	GIV Gai3 FP
O=C(Nc1sc2c(c1C(=O)Nc1ccccc1)CCCCC2)c1ccccc1Br	113
CCCn1cc(C(=O)NC)c(S(=O)(=O)N2CCSCC2)n1	103
CCOc1ccccc1NC(=O)c1c(NC(=O)c2cccc(C)c2)sc2c1CCCCC2	105
C/C(=N\OCc1nc2c3c(-c4ccccc4)c(-c4ccccc4)oc3ncn2n1)c1cccs1	106
Cn1c(=O)c2nc(SCCC(=O)Nc3ccccc3)n(C)c2n(C)c1=O	97
CCN1CCN(c2ncnc3sc(C(=O)Nc4cnc5ccccc5c4)c(C)c23)CC1	108
CC1CCc2[nH]nc(C(=O)N3CCN(C)CC3)c2C1 (centres undefined)	105
COc1ccc(OC)c(N2CC(O)(c3ccc(OC(F)F)cc3)[N+]3=C2SCCC3)c1 (centres undefined)	102
CCN(CC)c1ncnc2c1c(-c1ccccc1)cn2-c1ccc(OC)cc1	107
COc1ccccc1C1C2=C(CC(C)(C)CC2=O)Nc2ccccc2N1C(=O)C(C)C (centres undefined)	100
CCC(CO)NCC(O)Cn1c2ccc(Br)cc2c2cc(Br)ccc21 (centres undefined)	109
CCn1nc(C)c2ccnc(N3CCC(C(=O)N4CCN(c5cccc(OC)c5)CC4)CC3)c21	101
O=C(Nc1nc(-c2cccnc2)cs1)c1ccc(S(=O)(=O)N2CCc3ccccc32)cc1	104
CCOc1ccc(-c2[nH]nc3c2C(c2ccc(O)cc2)C(C#N)=C(N)O3)c(OCC)c1 (centres undefined)	104
COC(=O)Cc1nc(Nc2ccccc2OC)c2c(C)c(C)sc2n1	105
Cc1nc2sccn2c(=O)c1NC(=O)Cc1ccc(Cl)cc1	104
CCCCCCCCOc1ccc(NC(=O)/C(=C/c2ccc3c(c2)OCO3)NC(=O)c2ccccc2Br)cc1	109
Cc1cc(C(=O)N2CCCC2c2c(C)noc2C)no1 (centres undefined)	101
COc1ccc(CNC2=NCCNC23CCN(S(=O)(=O)c2cccs2)CC3)cc1	102
COc1cc(/C=C/c2nc3cc(Cl)ccc3c(=O)n2-c2ccc(NC(C)=O)cc2)cc(OC)c1OC	105
O=C(NCC1CCCO1)c1cccc(Nc2ncc(-c3ccc(F)cc3)cn2)c1 (centres undefined)	105
Cc1nnc(Nc2nc(N3CCOCC3)nc(N3CCOCC3)n2)s1	109
CCOC(=O)c1sc(NC(=O)C(C)Sc2nnc(CNC(=O)c3cccc(F)c3)n2C)c(C(=O)OCC)c1C (centres undefined)	103
Cc1cccc(-c2nnc(-c3nc(N4CCCC4)c4ccccc4n3)o2)c1	110
COc1ccc(Cl)cc1NC(=O)c1cc(S(=O)(=O)N2CCN(c3ccccc3)CC2)ccc1F	110
CCC(=O)Nc1ccc(S(=O)(=O)Nc2ccc(C3(C(=O)NCCC(C)C)CCC3)cc2)cc1	99
COc1ccc(-c2cc(C(F)(F)F)n3nc(C(=O)NCc4ccco4)c(Cl)c3n2)cc1OC	101
Cc1nc(CN2C(=O)COc3cc(S(=O)(=O)N4CCCC4)c(Cl)cc32)no1	101
N#C/C(C(=O)Nc1ccccc1)=C(/Nc1ccccc1)SCc1ccccc1Cl	103
CCN(CC)c1ccc(C2C3=C(CC(C)(C)CC3=O)Nc3ccc4ccccc4c32)cc1 (centres undefined)	105
COc1ccc(C2(O)CN(c3ccc(Cl)cc3)C3=[N+]2CCCS3)c(F)c1 (centres undefined)	103
O=C(NC1CCCCCC1)C1CCN(c2cncnc2N2CCCCC2)CC1	108
O=C(C1CCC1)N1CCCCC1CCN1CCCCC1 (centres undefined)	101
O=C1OC(c2ccccc2)=N/C1=C\c1ccccc1OC(=O)c1ccc([N+](=O)[O-])cc1	103
NNC(=O)CN1C(c2ccc(Br)cc2)=Nc2ccc(Br)cc2C1c1ccccc1 (centres undefined)	109
O=C(Nc1ccc(F)cc1F)C1Oc2ccccc2NC1=O (centres undefined)	99
Cc1ccc(NC(=O)c2cc(S(=O)(=O)NC3CCCCCC3)ccc2F)cc1	100
COc1ccc(NC(=O)Cn2cccc2-c2nnc(-c3ccccc3)o2)cc1OC	100
Cc1ccccc1CNC(=O)C1(C)CCCN(S(=O)(=O)c2ccc(F)c(Cl)c2)C1 (centres undefined)	106
O=C(NCC1CCCO1)c1ccc2ccnc(N3CCN(c4ccc(Cl)cc4)CC3)c2c1 (centres undefined)	98
COc1ccc(C2=N/C(=C\C=C\c3ccccc3)C(=O)O2)c(Br)c1	104
COc1ccc(OC)c(Nc2nn3c(=O)c4ccccc4nc3s2)c1	105
COC(=O)c1cc(NC(=O)c2cc3cc(Br)ccc3oc2=O)cc(C(=O)OC)c1	108
Cc1ccc(-c2nc(CN3CCCC(C(=O)NC4CCCCNC4=O)C3)no2)cc1 (centres undefined)	98
Cc1nc(N2CCOCC2)c2c(C)c(C(=O)Nc3ccccc3F)sc2n1	98
O=C(NC1CCCCC1)N1CCN(CCn2cnc3cccnc32)CC1	103
COc1ccc([N+](=O)[O-])cc1-c1[nH]c(-c2cccc(OC)c2OC)nc1-c1ccccc1	109
COCCCNC(=O)c1oc2ccccc2c1C	109
COc1cccc(C=Nc2c(C)n(C)n(-c3ccccc3)c2=O)c1OCC#N	114
COc1cccc(C2SCC(=O)N2c2ccc(Br)cc2)c1OC (centres undefined)	109

# New compounds follow.
molecule	GIV Gai3 FP
CCc1cc2c(Nc3ccc(F)cc3Cl)ncnc2s1	101
Cc1ccccc1-c1cc2n(C)c(C)c(CCC(=O)NCCCc3ccccc3)c(=O)n2n1	104
Cc1ccccc1Nc1c(-c2ccc(N(C)C)cc2)nc2cnc(Br)cn12	104
O=C1CSC(c2ccc(Cl)cc2)Nc2cccc3cccc1c23 (centres undefined)	102
Cc1[nH]n(-c2ccccc2)c(=O)c1C1=NC2(CCCCC2)Cc2ccccc21	114
Cc1ccccc1Cn1nc2n(CCC(=O)NC(C)C)c(=O)c3ccccc3n2c1=O	102
COC(=O)Cn1cnc2c(C#N)c3n(c2c1=O)CCCCC3	114
O=C(CCc1nc(CSc2nc3ccccc3o2)no1)Nc1ccc(F)c(Cl)c1	105
Cc1cc2c(cc1C(=O)NC1CCCC1)OCCCO2	106
O=C(Nc1cccc(Cl)c1)c1nc(N2CCOCC2)c2oc3ccccc3c2n1	107
COC(=O)Nc1ccc2c(c1)N(C(=O)CCN1CCOCC1)c1ccccc1CC2	115
CC(=O)c1c(C)oc2ccc(N(C(=O)c3ccncc3)S(=O)(=O)c3ccc(C)cc3)cc12	115
Cn1nc(-c2ccc(Cl)cc2)c2cc(C(=O)NCCN3CCCC3)sc21	104
Cc1cc(C)n2c(SCc3cc(=O)n4oc(C)cc4n3)nnc2n1	105
Cc1c(Nc2ncnc3c2cnn3-c2ccc(Cl)cc2)c(=O)n(-c2ccccc2)n1C	104
Cc1ccc(N2C(SCC(=O)O)=NC(=Nc3cccc(C)c3)C23CCCC3)cc1	107
CCN1CCCC1CNC(=O)c1nc(-c2ccc(S(=O)(=O)N3CCCCC3)cc2)no1 (centres undefined)	105
Cc1ccc(CSc2nccc3c2ccn3CC(=O)NCCN2CCCC2)cc1	104
Cc1ccccc1Cn1cc(C(=O)Nc2ccc(S(N)(=O)=O)cc2)ccc1=O	104
COc1ccc(Br)cc1C1Nc2ccc3ccccc3c2C2=C1C(=O)CC(C)(C)C2 (centres undefined)	112

# Rewritten as labelled records: part of the list above.
smiles: Cc1ccc(N2C(SCC(=O)O)=NC(=Nc3cccc(C)c3)C23CCCC3)cc1
  GIV Gai3 FP: 107

smiles: CCN1CCCC1CNC(=O)c1nc(-c2ccc(S(=O)(=O)N3CCCCC3)cc2)no1 (centres undefined)
  GIV Gai3 FP: 105

smiles: Cc1ccc(CSc2nccc3c2ccn3CC(=O)NCCN2CCCC2)cc1
  GIV Gai3 FP: 104

smiles: Cc1ccccc1Cn1cc(C(=O)Nc2ccc(S(N)(=O)=O)cc2)ccc1=O
  GIV Gai3 FP: 104

# Other structures:
molecule	GIV Gai3 FP
COC(=O)C1=C(C(=O)OC)SC(=C2C(=S)C(C)(C)N(C(=O)CCC3CCCCC3)c3ccccc32)S1	106
CSc1cccc(N2C=C(C#N)S(=O)(=O)c3ccccc32)c1	99
CCOc1cccc2c1OC(c1ccc(C(=O)OC)cc1)N1N=C(c3ccc(F)cc3)CC21 (centres undefined)	110
Cc1cccc(C(=O)OC2=C(c3ccccc3)C(=O)c3ccccc32)c1	121
CCCc1ccc(S(=O)(=O)N2CCc3c(c(-c4nnc(SCC)n4CC)nn3C)C2)cc1	110
O=C(NC1CCCc2ccccc21)c1ccc(Oc2ccnc(-c3ccc(F)cc3)n2)cc1 (centres undefined)	107
CCOc1ccc(-n2nnc3c(N4CCN(C(=O)C5CCCO5)CC4)ncnc32)cc1 (centres undefined)	100
CCNC(=O)c1cc(NS(=O)(=O)c2ccc(Br)cc2)ccc1N1CCNCC1	102
CN(C)c1ccc(CNC(=O)c2nnc3ccc(-c4ccccc4)nn23)cc1	105
CCOc1ccc2c(c1)sc1nc(=O)c3ccncc3n12	111
CC1=C(C(=O)OC2CCCCCC2)C2(O)C(=O)c3ccccc3C2(O)N1 (centres undefined)	102
O=S(=O)(c1cn(Cc2noc(-c3cccc4[nH]ccc34)n2)cn1)N1CCCCC1	104
Cc1ccc(N2C(=O)/C(=C/c3ccc(-c4ccc(Cl)c(Cl)c4)o3)C=C2c2ccccc2)cc1[N+](=O)[O-]	116
COc1cc(C2C3=C(CCCC3=O)N(c3ccccc3C(F)(F)F)C(=N)/C2=C(/O)c2ccccc2)cc(OC)c1OC (centres undefined)	115
O=C1Cc2cc(S(=O)(=O)NCc3cccnc3)cc3c2N1CCC3	107
CC(=O)c1c(C)oc2ccc(N(C(=O)c3ccccc3)S(=O)(=O)c3ccccc3)cc12	113
COc1ccc(OC)c(NC(=O)N2CCN(c3cc(-c4ccc(OC)c(OC)c4)ncn3)CC2)c1	101
CN(C(=O)c1ccc(-c2cc(N3CCOCC3)ncn2)cc1)C1CCCCC1	99
COc1ccc(OC)c(NC(=O)C2CCN(c3ncnc4onc(-c5ccc(F)cc5)c34)CC2)c1	99
N#CC1(C#N)[C@H](c2cccc(F)c2)[C@@H](C(=O)c2ccccc2)N2c3ccc(Cl)cc3C=C[C@@H]21	114

# Gathered by group: the entries above containing a CF3 group
molecule	GIV Gai3 FP
COc1ccc(-c2cc(C(F)(F)F)n3nc(C(=O)NCc4ccco4)c(Cl)c3n2)cc1OC	101
COc1cc(C2C3=C(CCCC3=O)N(c3ccccc3C(F)(F)F)C(=N)/C2=C(/O)c2ccccc2)cc(OC)c1OC (centres undefined)	115

# Next part:
molecule	GIV Gai3 FP
CC(C(=O)O)N1C(=O)OC(C)(C)C1(C)O (centres undefined)	114
Cc1cc2c(cc1C)CSC(c1cccc([N+](=O)[O-])c1O)SC2	110
CCOC(=O)c1[nH]c(C)c(CN(Cc2ccc(C)cc2)S(C)(=O)=O)c1C	96
CC(NC(=O)c1cnn2c(-c3ccccc3)ccnc12)c1ccccc1 (centres undefined)	99
CC12c3ccccc3C(c3ccccc31)C1C(=O)N(c3ccc(I)cc3)C(=O)C12 (centres undefined)	109
Cc1nnc2ccc(S(=O)(=O)Nc3ccc4c(c3)OCO4)cn12	96
CCCOc1ccccc1C1NC(=O)NC(C)=C1C(=O)OCCOc1ccccc1 (centres undefined)	119
O=C(c1cccc(Cl)c1)N1CCCN(Cc2noc(-c3ccccc3)n2)CC1	101
O=C(NCc1ccccc1)c1ccc2c3c(onc13)-c1ccccc1C2=O	113
CCCn1cc(S(=O)(=O)NCc2ccc(F)cc2F)c2cccnc21	108
Cc1ccc(C(C)C)c(OCC(=O)Nc2sc3c(c2C#N)CCCCC3)c1	108
COc1cccc(Cn2nc3c(S(=O)(=O)N4CCc5ccccc5C4)cccn3c2=O)c1	123
CC(C)Oc1ccccc1CN1CCCC1c1cc(C(C)C)on1 (centres undefined)	108
CCOC(=O)c1ccc(N2N=C(C(F)(F)F)/C(=C/c3ccc(N(C)C)cc3)C2=O)cc1	104
CC1(C)CC(=O)c2cnc3c(C(=O)NCc4ccccn4)cnn3c2C1	100
CCc1cccc(NC(=O)COc2nc(CC)nc3ccccc23)c1	101
COc1ccc(-c2cc(C(F)(F)F)n3ncc(C(=O)Nc4ccc5c(c4)OCO5)c3n2)cc1OC	109
COc1cc(/C=C2/C(=N)N3C(c4ccccc4)=CSC3=NC2=O)ccc1OCCOc1cccc(C)c1	106
c1ccc(CN2CCN(c3ccc4nnc(CCc5nc(-c6ccncc6)no5)n4n3)CC2)cc1	101
CCCc1cc(C2CCCN2Cc2ccc(OC)c(Br)c2)no1 (centres undefined)	107
O=C1C(=O)N(CCO)C(c2cccc(F)c2)/C1=C(/O)c1ccc(Br)cc1 (centres undefined)	109
CCOc1nnc(-c2ccc(C)c(S(=O)(=O)N(C)C)c2)c2ccccc12	104
COCC(=O)NC1(c2nnnn2CCOC(=O)Nc2ccc(Cl)cc2)CCCC1	112
O=C1C2C3c4ccccc4C(c4ccccc43)C2C(=O)N1c1ccc(Cl)c(Cl)c1 (centres undefined)	115
Cc1nnc(-c2coc(S(=O)(=O)N3CCN(C(C)C)CC3)c2)o1	107
OC(CNC1CCCCC1)Cn1c2ccc(Cl)cc2c2cc(Cl)ccc21 (centres undefined)	105
O=C1CC(c2ccccc2)c2ccc3ccccc3c2N1 (centres undefined)	104
c1ccc(-c2cs/c(=N\c3ccccn3)n2-c2ccccc2)cc1	95
O=C1c2ccccc2NC2(C(=O)N(Cc3ccccc3Cl)c3ccccc32)N1CCc1ccccc1 (centres undefined)	110

# Assay outcomes as filed in PubChem BioAssay.
